# Mtb hypoxia inh: inhibitors of hypoxia-regulated fluorescent reporter in Mycobacterium tuberculosis | M. tuberculosis hypoxia-regulated fluorescent reporter, fluorescence | fluorescence inhibition, % (test concentration not listed) | 300,000 compounds, 0.1% hits | AID 1159583;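 active = 35 to 45% if threefold the growth effect, above 45% if 1.5-fold the growth effect; inactive = the rest, general growth blockers included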;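 note: wells of about 50 µL received 100 nL stock; 0% = vehicle wells and 100% = reference inhibitor wells; whole bacteria with a GFP reporter of the hypoxia response; strong numbers were not always called active; many hits fall short of the cut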
# PrP 5UTR inh: inhibition of PrP 5' UTR reporter expression | 340,000 compounds, 0.35% hits | inhibition, % (concentration not given with the values) | cell-based PrP 5' UTR mRNA reporter, plate reader | AID 488862;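 active = every replicate at 50% or more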;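 note: 0 = median of the neutral control wells; tested in H4 reporter cells; numbers are from one replicate; inactives centre near -14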
# BJeLR lethal: BJeLR cell viability loss; BJeLR (HRASV12) viability, CellTiter-Glo ATP luminescence, 48 h; reference of the scale not given here; inhibition, % (concentration not given with the values); 300,000 compounds, 0.17% hits; AID 1554;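 active = replicate mean above 50%; inconclusive = above 50% but judged a plate artefact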;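 note: 50 nL library stock added to about 25 µL; numbers are from one replicate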
# ugtP null kill: kills S. aureus RN4220 lacking UgtP | S. aureus RN4220 ugtP deletion, OD600 growth, 16 h; some inactives read as strong as hits | growth inhibition, % (test concentration not listed) | 330,000 compounds, 0.54% hits;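 active = z-score under -3 and OD600 up to 0.15 on both plates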;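 note: plate controls were untreated wells for no effect and antibiotic for full effect; wells of about 80 µL received 100 nL stock; the first replicate is given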
# Autofluor counter: counter-screen for toxin protease inhibitors: compound fluorescence; compound autofluorescence counterscreen, microsphere flow cytometry; hits give high values; AID 624483; 360,000 compounds, 3.1% hits; fluorescence intensity (no concentration beside the values);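 active = at least 3 SD above the mean of all compounds, about 16000 in these data; inconclusive = too few beads counted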;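 note: 100 nL of 1 mM stock went into each well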
# RN4220 kill: S. aureus RN4220 growth inhibition. inhibition, % (no concentration beside the values). AID 1259311. OD600, 16 h. 330,000 compounds, 0.33% hits;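 active = z-score of -3 or lower and OD600 up to 0.18 on both plates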;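 note: plate controls were untreated cells for no effect and reference antibiotic for full effect; stock transfer was 100 nL into about 80 µL; one replicate is shown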
# Mtb hypoxia inh growth: also measured in Mtb hypoxia inh; calls as there; growth inhibition, %; measured here: M. tuberculosis growth (absorbance);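 0% = vehicle and 100% = reference antibiotic; read after six days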
# Numbers without * were called inactive; ? = inconclusive; · = no result given.
SMILES,Mtb hypoxia inh,Mtb hypoxia inh growth,PrP 5UTR inh,BJeLR lethal,ugtP null kill,Autofluor counter,RN4220 kill
COc1ccc(-c2cc3ccccc3n2CC(O)CN2CCN(CCO)CC2)cc1 (configuration not stated),·,·,-21,-1,0,5496,-2.1
COc1cccc(-c2nc(CS(=O)(=O)CC(=O)NCc3ccc(Cl)cc3)c(C)o2)c1,-1,4,-11,3,7,5612,22
COc1cc2c(cc1NC(=O)c1cc(-c3ccccn3)nc3ccccc13)oc1ccccc12,2,2,-19,-6,-31,2145,8.5
OCc1cc(-c2ccc(Cl)c(Cl)c2)on1,14,7,-28,·,-10,3311,12
Cc1ccccc1OCCNc1ccc(C(F)(F)F)cc1[N+](=O)[O-],·,·,-11,5,-19,2660,-2.0
C[C@H](NC(=O)c1[nH]cnc1C(=O)Nc1ccc(CNC(=O)OC(C)(C)C)cc1)C(=O)OC(C)(C)C,·,·,-24,17,·,3888,·
CCc1nnc(NC(=O)CSc2nncc(=O)n2N)s1,7,6,0,-7,11,2357,3.7
Cc1ccc(S(=O)(=O)N(C)CC(=O)NNC(=O)Cc2cccc(F)c2)cc1,10,9,-22,·,9,?,3.7
Cn1nnnc1SCC(=O)Nc1cc(S(=O)(=O)N2CCCCC2)ccc1Cl,-2,4,-16,·,-5,3427,-1.4
COc1ccc(CCNC(=O)CCc2ccc(OC)cc2)cc1,4,3,-4,-18,3,5313,-2.5
CC1CCCCN1CCNC(=O)CCc1nnc2n(Cc3ccccc3)c(=O)c3ccccc3n12 (configuration not stated),·,·,-31,-3,2,8712,-1.1
O=C(CN1C(=O)CSc2ccccc21)NN=Cc1ccco1,4,-2,·,·,-2,·,2.5
O=C(CSc1nnc(Nc2ccccc2F)s1)NC1CC1,23,11,-9,·,-2,3590,1.2
CCOC(=O)c1c(NC(=O)OC)sc(C(=O)N(CC)CC)c1C,·,·,-10,5,-1,3235,6.6
CC(C)=CCN1CCN(Cc2nc(-c3ccccc3)cs2)CC1CCO (configuration not stated),5,4,-34,5,2,4587,3.0
COc1ccc(C(=O)CSc2n[nH]c(=O)n2Cc2ccco2)cc1,13,3,-23,-3,8,4287,4.8
COc1ccc(/C=C2\SC(=O)N(CC(=O)N(C)C3CCS(=O)(=O)C3)C2=O)cc1 (configuration not stated),1,1,-11,-4,-1,4494,-0.7
COc1ccc(C(C)=NNc2nc3ccccc3nc2C)cc1,1,-4,·,·,1,·,6.7
Cc1ccc(C=NNc2cn[nH]c(=O)c2Cl)cc1,3,2,·,·,-8,·,4.6
CC(OC(=O)c1cccc(-n2cnnn2)c1)C(=O)Nc1ccccc1F (configuration not stated),-2,-10,-6,-7,8,4482,4.1
O=C(c1cc([N+](=O)[O-])ccc1Cl)N1CCc2ccccc21,-2,2,-9,1,1,3466,-1.8
CC(=O)Nc1ccc(NC(=O)COc2cccc3c2OC(C)(C)C3)cc1,17,14,-32,-1,10,3279,3.5
CSc1cccc(CN2CCC(Oc3cccc(C(=O)N4CCCC4)c3)CC2)c1,3,0,0,3,-7,?,-1.5
O=S(=O)(CCN1CCOCC1)c1ccc(Oc2ccc(S(=O)(=O)CCN3CCOCC3)cc2)cc1,9,13,-21,4,7,4042,0.8
CCc1ccc(NC(=O)CCn2cccc2)cc1,8,3,-42,-11,12,4021,6.1

# Brought forward from above: two compounds, then new ones.
SMILES,Mtb hypoxia inh,Mtb hypoxia inh growth,PrP 5UTR inh,BJeLR lethal,ugtP null kill,Autofluor counter,RN4220 kill
O=S(=O)(CCN1CCOCC1)c1ccc(Oc2ccc(S(=O)(=O)CCN3CCOCC3)cc2)cc1,9,13,-21,4,7,4042,0.8
CCc1ccc(NC(=O)CCn2cccc2)cc1,8,3,-42,-11,12,4021,6.1
N#Cc1sc2nc3c(cc2c1N)CCCC3,4,12,-38,-7,-5,2126,9.8
CCC(C)C(=O)Nc1nnc(-c2cccs2)s1 (configuration not stated),·,·,-34,·,-5,4872,2.9
CN1/C(=C\C(=O)C[n+]2ccc(C(=O)c3ccccc3)cc2)C(C)(C)c2ccccc21,22,27,-16,19,5,4140,6.7
CCOc1ccc(C(=O)Nc2ccc(NC(=O)c3ccccc3)cc2)cc1Br,21,0,-11,-2,6,·,5.0
CCOc1ccc(N(CC(=O)NCCc2ccc(OC)cc2)S(C)(=O)=O)cc1,-5,-2,-22,6,10,4576,5.6
COc1ccccc1C(=O)NNC(=O)c1cccc(F)c1,1,-6,-52,5,2,1954,4.0
CCN(CC)C(=O)CSc1nnc(-c2ccc(O)cc2)n1CC1CCCO1 (configuration not stated),-12,3,3,4,2,4414,2.4
O=C(CCCc1nc2ccccc2s1)Nc1ccccc1,11,2,-71,1,3,3978,1.9
Cc1ccc(S(=O)CCNC(=O)Cc2ccc(Cl)cc2)cc1 (configuration not stated),-8,11,-19,8,2,4594,1.1
Cc1nc(CNS(=O)(=O)c2ccc(Br)cc2)cs1,3,5,-10,5,9,3508,5.4
CC(=O)c1ccc(NC(=O)c2sc3nc(C)c(C)c(C)c3c2N)cc1,16,4,-85,-4,1,4220,6.3
CCc1nn2cc(C(=O)c3ccccc3O)cnc2c1-c1ccc(F)cc1,-11,-9,-13,-7,17,8071,-13
CN(C)c1ccc(/C=N/NC(=O)c2ccc3c(c2)OCCO3)cc1,·,·,-34,7,·,6281,·
N#CCCn1ccc(NC(=O)c2ccc(Cl)cc2)n1,5,7,-12,-3,-8,3352,-14
CCCn1c(NC(=O)c2ccc([N+](=O)[O-])o2)nc2ccccc21,10,16,-13,6,9,?,3.9
Cc1sc2nc(SCC(=O)N3CCCC3)[nH]c(=O)c2c1C,3,2,-23,5,-3,5039,8.4
Cc1cc(C)n(CC(O)CN(c2ccccc2)S(=O)(=O)c2ccccc2)n1 (configuration not stated),·,·,0,3,10,2260,2.7
C=C(c1ccccc1)P(=O)(O)O,12,-5,-17,0,10,2430,0.9
O=C(CSc1nnc(-c2ccccc2F)o1)N1CCNC1=O,10,6,·,·,9,·,6.4
CCC(OC(=O)C1=Cc2ccccc2OC1)C(=O)NCc1ccco1 (configuration not stated),13,8,-10,1,3,4092,4.4
CCCn1c(SCC(=O)NC(C)(C)C)nnc1C(C)C,·,·,-8,7,4,3952,3.1
O=C(N/C(=C\c1ccc([N+](=O)[O-])cc1)C(=O)N1CCOCC1)c1ccco1,0,-5,-36,-3,6,4334,2.5
O=C(OCCN1C(=O)c2cccc3c(N4CCOCC4)ccc(c23)C1=O)c1ccccc1Cl,3,-1,-14,44,-9,3728,27
O=c1[nH]c(=O)n(Cc2ccc(F)cc2)c(O)c1C=NCCCO,6,10,-20,-5,1,4266,-1.4
COc1cc(C(C)=NN2CCN(c3ccccc3OC)CC2)ccc1O,19,5,·,·,10,·,-0.5

# More compounds follow.
SMILES,Mtb hypoxia inh,Mtb hypoxia inh growth,PrP 5UTR inh,BJeLR lethal,ugtP null kill,Autofluor counter,RN4220 kill
COc1cc(C2C(C#N)=C(N)Oc3c2oc(CO)cc3=O)ccc1OC(C)C (configuration not stated),5,13,-26,5,1,20218*,4.4
CCO/N=C(/C)c1c(O)c(C)c(-c2ccccc2)n(-c2ccccc2)c1=O,·,·,-14,1,·,2447,·
COc1ccc(N/C=C/c2nc(SC)nnc2C)cc1,1,11,-14,-5,5,4142,6.9
Cc1nn(-c2ccccc2)c(Cl)c1C1C(C#N)=C(N)OC2=C1C(=O)CC(C)(C)C2 (configuration not stated),·,·,-17,-2,3,4752,4.1
Cn1c(=O)n(C)c2cc(NC(=O)Cc3ccccc3[N+](=O)[O-])ccc21,-4,2,-21,-2,2,3406,1.9
CC(C)(C)NC(=O)C(c1ccc(O)cc1)N(C(=O)CCC(=O)Nc1nccs1)c1cccc(F)c1 (configuration not stated),-8,5,-16,9,-3,4220,0.7
CC(Oc1ccccc1)C(=O)OCC(=O)NC(=O)NC1CCCCC1 (configuration not stated),6,-5,8,·,7,5443,0.8
COCn1c(-c2ccc(OC)c(OC)c2)nc2ccccc21,10,12,-38,4,-1,9407,3.3
Cc1ccc(NC(=O)NCc2ccc3c(c2)OCO3)cc1,14,9,-14,2,1,10969,0.6
O=C(NCCc1ccccc1)C(c1ccc(F)cc1)N(C(=O)c1csnn1)C1CC1 (configuration not stated),5,8,-65,-6,5,6234,2.5
O=C(COC(=O)/C=C/c1ccco1)NCc1ccc(Cl)cc1Cl,9,10,-18,·,4,4939,4.8
O=P(Oc1ccccc1)(Oc1ccccc1)C(O)c1ccccc1 (configuration not stated),2,-2,-13,-2,3,3617,4.5
CC(=O)NC(CC(=O)Nc1ccc(S(=O)(=O)N2CCOCC2)cc1)c1ccccc1 (configuration not stated),3,3,-6,·,5,5911,6.8
O=C(Nc1nnc(-c2ccc(F)cc2)o1)C1CCCN1S(=O)(=O)c1cccs1 (configuration not stated),5,6,-26,-4,9,4905,5.9
Cc1ccc(-c2noc(CNc3ccccc3)n2)cc1,3,12,-7,-6,34,21856*,0.5
CC(C)C[C@H]1CN=C(N(C)C)N1CC1CCCCCC1,5,16,-5,·,13,2807,16
O=C(C1CCCN(C2CC(=O)N(c3ccc(Cl)cc3)C2=O)C1)N1CCCC1 (configuration not stated),11,10,-12,-3,6,6638,3.5
O=C1c2ccccc2NC(c2cccc(O)c2)N1NS(=O)(=O)c1ccccc1 (configuration not stated),12,-4,-16,5,8,3302,26
CCc1ccccc1NC(=O)N1CCC(NC(=O)C(Cc2ccc(OC)c(OC)c2)NC(C)=O)CC1 (configuration not stated),7,8,-2,-2,2,9519,4.8
N/C(CN1CCCC1=O)=N\OC(=O)c1ccccc1Cl,16,10,-40,-4,0,9055,2.5
O=C1C(Cl)=C(N2CCCC2)C(=O)N1c1ccc(F)cc1,6,16,-25,3,9,3371,4.2
CNCc1nc2ccccc2[nH]1,4,4,0,2,13,1977,6.3
Fc1ccc(C=NNC(=S)Nc2cccnc2)cc1,10,2,·,·,2,·,7.6
N#CC1=C(N)SC(N)=C(C#N)C1c1cccc(O)c1,-1,-2,-26,7,-3,10595,1.9
Cc1oc(-c2ccccc2)cc1C(=O)NC(Cc1c[nH]c2ccccc12)C(=O)O (configuration not stated),3,2,-4,-16,-4,2038,3.2
Cc1ccc(-n2c(SCC(=O)N3CCOCC3)nnc2-c2cccnc2)cc1,4,0,-3,-15,0,14155,0.7
CCOC(=O)N1CCN(CC(=O)Nc2sccc2C#N)CC1,8,5,3,4,13,4496,5.2

# Among those listed so far, 13 contain a Cl atom.
SMILES,Mtb hypoxia inh,Mtb hypoxia inh growth,PrP 5UTR inh,BJeLR lethal,ugtP null kill,Autofluor counter,RN4220 kill
COc1cccc(-c2nc(CS(=O)(=O)CC(=O)NCc3ccc(Cl)cc3)c(C)o2)c1,-1,4,-11,3,7,5612,22
OCc1cc(-c2ccc(Cl)c(Cl)c2)on1,14,7,-28,·,-10,3311,12
Cn1nnnc1SCC(=O)Nc1cc(S(=O)(=O)N2CCCCC2)ccc1Cl,-2,4,-16,·,-5,3427,-1.4
Cc1ccc(C=NNc2cn[nH]c(=O)c2Cl)cc1,3,2,·,·,-8,·,4.6
O=C(c1cc([N+](=O)[O-])ccc1Cl)N1CCc2ccccc21,-2,2,-9,1,1,3466,-1.8
Cc1ccc(S(=O)CCNC(=O)Cc2ccc(Cl)cc2)cc1 (configuration not stated),-8,11,-19,8,2,4594,1.1
N#CCCn1ccc(NC(=O)c2ccc(Cl)cc2)n1,5,7,-12,-3,-8,3352,-14
O=C(OCCN1C(=O)c2cccc3c(N4CCOCC4)ccc(c23)C1=O)c1ccccc1Cl,3,-1,-14,44,-9,3728,27
Cc1nn(-c2ccccc2)c(Cl)c1C1C(C#N)=C(N)OC2=C1C(=O)CC(C)(C)C2 (configuration not stated),·,·,-17,-2,3,4752,4.1
O=C(COC(=O)/C=C/c1ccco1)NCc1ccc(Cl)cc1Cl,9,10,-18,·,4,4939,4.8
O=C(C1CCCN(C2CC(=O)N(c3ccc(Cl)cc3)C2=O)C1)N1CCCC1 (configuration not stated),11,10,-12,-3,6,6638,3.5
N/C(CN1CCCC1=O)=N\OC(=O)c1ccccc1Cl,16,10,-40,-4,0,9055,2.5
O=C1C(Cl)=C(N2CCCC2)C(=O)N1c1ccc(F)cc1,6,16,-25,3,9,3371,4.2

# Screens as filed in PubChem.

# Rows were taken by chance. Share with any hit: about 4%.
